Vaccinia mCherry = inhibitors of vaccinia virus infection (mCherry reporter signal); 310,000 compounds, 0.63% hits; Vaccinia virus mCherry reporter infection, fluorescence; about a quarter of the inactives have no number; Potency, µM (highest dose often 36.5 µM), inactives show top-dose activity change, negative = inhibition, hits mostly inhibitors; active = well fitted inhibition curve with a large enough effect; inconclusive = small, poorly fitted or top-dose-only effect; inactive = no such curve, though single readings can be large or run the other way; tested in A549 cells; also: nearly all actives have a fitted effect of over 35% in size; inactives centre near -10
VACV Venus inh = vaccinia inhibition (Venus reporter); Vaccinia virus Venus reporter expression, fluorescence; 330,000 compounds, 0.46% hits; Potency, µM (titrated, usually from 36.5 µM), for the others: top-dose activity change, negative = inhibition, usual class: inhibitors; AID 720580; active means well fitted inhibition curve with a large enough effect; inconclusive means small, poorly fitted or top-dose-only effect; inactive means no such curve, though single readings can be large or run the other way; tested in A549 cells; also: nearly all actives have a fitted effect of over 30% in size; inactives centre near -10
Starred values were filed as active, the others as inactive; i = inactive; ? = inconclusive; nt = not tested or not shown; & = joins results of further samples; [ ] = remark or other dose. % is scaled to controls: 0 for no effect and ±100 for the full control effect; potency is read from the fitted curve at half-maximal effect.

SMILES | Vaccinia mCherry | VACV Venus inh
Cc1cc2c(c(C)c1CCO[C@@H]1O[C@H](CO)[C@@H](O)[C@H](O)[C@H]1O)C(=O)[C@@H](C)[C@@H]2O | i | -2%
Cc1cccc(C)c1OCCN1C(=O)NC(C)(c2ccccc2)C1=O (stereo not given) | i | -19%
Cc1ccc(-c2cc3ncc4c(n3n2)-c2cc(Cl)ccc2OC4)cc1 | -12% | -9%
CN1C(=O)C(C)(C)c2cc(S(=O)(=O)NCCc3ccc(Cl)cc3)ccc21 | -5% | 0%
C1=C(CCNc2ncnc3c2[nH]c2ccccc23)CCCC1 | ? | ?
COc1ccc(C(=O)COC(=O)c2sc(C)nc2C)cc1F | i | -11%
CC(C)C[C@@H](CN1CCC[C@H]1CN1C(=O)C(=O)NC[C@@H]1Cc1ccc(O)cc1)N1C[C@H](Cc2ccc(O)cc2)N(CCc2ccccc2)C(=O)C1=O | ? | -9%
Cc1ccc(-n2ncc3c(NCc4ccccn4)ncnc32)c(C)c1 | -8% | -19%
N#CCC(=O)Nc1ccc(C(=O)OCC(=O)NC(=O)Cc2ccccc2)cc1 | -11% | 3%
CCOc1cc2nc(-c3ccc(OC)c(OC)c3)nc(NCCCN3CCOCC3)c2cc1OC | -20% | -28%
COc1ccccc1/C=C/C=N/NC(=O)c1ccc(=O)n(C)c1 | -9% | -11%
O=C(NCCCNC(=O)c1ccco1)c1ccc(Cl)cc1 | 2% | 2%
O=C(Nc1ccccc1)/C(=C/c1ccc(O)cc1)NC(=O)c1ccco1 | ? | -11%
CC(=O)Oc1ccc2ccccc2c1C(NC(=O)Cc1ccccc1)c1ccccc1 (stereo not given) | -35% | ?
Cc1ccc(C(=O)N[C@H](C(=O)Nc2ccc(N3CCOCC3)cc2)C(C)C)cc1 | -2% | -20%
CC1=C(C(=O)N(C)C)CC(CC(=O)NC2CCCC2)C(=O)N1CCC1=CCCCC1 (stereo not given) | -7% | -9%
COc1ccc(NC(=O)NS(=O)(=O)c2ccc(C)cc2)cn1 | -14% | 3%
CC(C)CN1CCC(=O)N([C@H](CO)c2ccccc2)CC1 | -1% | -6%&-11%
O=c1c2sc3ccccc3c2n(Cc2cccc(Cl)c2)c(=O)n1Cc1ccccc1 | -17% | -10%
O=C(NCCc1nnc2n1CCN(CC1CC=CCC1)CC2)c1ccc(F)cc1 (stereo not given) | i | -14%
CCc1c(C)nc(SCc2nc(-c3ccccc3C)no2)[nH]c1=O | -2% | -8%
O=C(NC(=S)Nc1cccc(NC(=S)NC(=O)c2ccco2)n1)c1ccco1 | -14% | -13%
Cc1ccc(S(=O)(=O)N2CCC(C)CC2)cc1C(=O)NCc1ccccn1 | -19% | -22%
CC(Oc1cccc(Cl)c1)C(=O)Nc1nc(-c2ccccn2)cs1 (stereo not given) | 11µM* | ?
Cc1ccc(Cl)cc1NC(=O)C(NS(=O)(=O)c1cccc2nsnc12)c1ccccc1 (stereo not given) | -7% | -11%

Record cards (already shown). Values in the order: Vaccinia mCherry, VACV Venus inh
CCc1c(C)nc(SCc2nc(-c3ccccc3C)no2)[nH]c1=O reads -2%, -8%
O=C(NCCCNC(=O)c1ccco1)c1ccc(Cl)cc1 reads 2%, 2%
Cc1ccc(C(=O)N[C@H](C(=O)Nc2ccc(N3CCOCC3)cc2)C(C)C)cc1 reads -2%, -20%
COc1ccc(C(=O)COC(=O)c2sc(C)nc2C)cc1F reads i, -11%

(more compounds)
SMILES | Vaccinia mCherry | VACV Venus inh
CC(=O)c1ccccc1OC(=O)COc1ccc(Cl)cc1C | 13% | -4%
Nn1c(SCC(=O)N2CCOCC2)nnc1C1CC1 | i | -8%
COc1ccc(-c2nn(CCC#N)cc2C(=O)NCc2ccccc2)cc1 | -14% | -11%
CCOC(=O)c1nc2sc3c(c2c(=O)[nH]1)CCCC3 | i | -10%
Cc1nccn1-c1cc(C(C)(C)C)nc2c(-c3ccccc3)cnn12 | i | 4%
O=C(O)COc1ccccc1/C=C1\C(=O)NC(=O)N(CCC2=CCCCC2)C1=O | -15% | 12%
COc1ccc(CC(=O)Nc2ccc(S(=O)(=O)Nc3cc(C)nc(C)n3)cc2)cc1OC | i | -1%
COCCN1CN(S(=O)(=O)c2ccc(Cl)cc2)c2nc3ccccc3nc21 | nt | -16%
Cc1cc(C)c(S(=O)(=O)N2CCN(C(=O)c3cccs3)CC2)c(C)c1 | -15% | -12%
CSc1nnc(CNC(=O)c2ccccc2)n1-c1cccc(C)c1 | -27% | -11%
CCC(=O)Oc1ccc2c(C)cc(=O)oc2c1C(=O)c1ccccc1 | i | -6%
COc1ccccc1C(=O)NC(=O)COC(=O)c1ccc([N+](=O)[O-])cc1Cl | -17% | -5%
Cc1cc(NC(=O)CCC(=O)NNC(=O)c2ccc(C(C)(C)C)cc2)no1 | -14% | -15%
COc1ccc(C)cc1S(=O)(=O)N(CC(N)=O)Cc1ccccc1 | nt | -21%
CCOC(=O)N1CCN(C(=O)Cn2nc(C)n3nc(-c4ccccc4)cc3c2=O)CC1 | -1% | -10%
CCN(CC)C(=O)C1=C(C)N(Cc2ccc(C(C)(C)C)cc2)C(=O)C(CC(=O)NC2CC2)C1 (stereo not given) | i | -4%
COc1cccc(CN2CCNC(=O)C2CC(=O)N(C)CC2CCOCC2)c1OC (stereo not given) | -17% | -10%
O=[N+]([O-])c1ccccc1S(=O)(=O)N/C(=N/S(=O)(=O)c1ccccc1)c1ccccc1 | i | -4%
COc1cccc(OCCNC(=O)c2cc(OC)c(OC)c(OC)c2)c1 | i | -16%
O=C(Nc1ccc(Cl)cc1C(=O)N1CCOCC1)c1ccco1 | -15% | 0%
COC(=O)C1=C(C)N(Cc2ccccc2)C(=S)N[C@H]1c1ccccc1 | i | -8%
CC1CCCN(CCS(=O)(=O)c2ccccc2)C1 (stereo not given) | 10µM* | ?
CCCCc1nn2c(=O)cc(COC(=O)c3ccc4c(c3)OCO4)nc2s1 | 1% | -3%
CC(=O)c1ccc(NC(=O)CN2C(=O)CCc3cc(S(=O)(=O)N4CCC(C)CC4)ccc32)cc1 | -11% | -8%
Cc1nc(Cl)c(C(=O)NCc2ccccc2)c(C)c1Cl | i | -11%

Quoted at random: 2 entries already listed
SMILES | Vaccinia mCherry | VACV Venus inh
Cc1cccc(C)c1OCCN1C(=O)NC(C)(c2ccccc2)C1=O (stereo not given) | i | -19%
CC(Oc1cccc(Cl)c1)C(=O)Nc1nc(-c2ccccn2)cs1 (stereo not given) | 11µM* | ?

Copied from the list:
O=C(NC(=S)Nc1cccc(NC(=S)NC(=O)c2ccco2)n1)c1ccco1 in VACV Venus inh = -13%
O=C(NCCCNC(=O)c1ccco1)c1ccc(Cl)cc1 in Vaccinia mCherry = 2%
Cc1nccn1-c1cc(C(C)(C)C)nc2c(-c3ccccc3)cnn12 in VACV Venus inh = 4%
CC(=O)c1ccc(NC(=O)CN2C(=O)CCc3cc(S(=O)(=O)N4CCC(C)CC4)ccc32)cc1 in Vaccinia mCherry = -11%
CCc1c(C)nc(SCc2nc(-c3ccccc3C)no2)[nH]c1=O in Vaccinia mCherry = -2%
CC(C)C[C@@H](CN1CCC[C@H]1CN1C(=O)C(=O)NC[C@@H]1Cc1ccc(O)cc1)N1C[C@H](Cc2ccc(O)cc2)N(CCc2ccccc2)C(=O)C1=O in VACV Venus inh = -9%
O=C(NCCc1nnc2n1CCN(CC1CC=CCC1)CC2)c1ccc(F)cc1 (stereo not given) in VACV Venus inh = -14%

(more compounds)
SMILES | Vaccinia mCherry | VACV Venus inh
CCCOP(=O)(c1ccc(N(C)C)cc1)C(O)c1ccc(Cl)cc1 (stereo not given) | -2% | -8%
S=C(NCCc1ccccc1)Nc1ccccn1 | -13% | -11%
CN(c1cccc(NC(=O)CN(c2cccc(F)c2)S(C)(=O)=O)c1)S(C)(=O)=O | -20% | -6%
COc1ccccc1N1CCN(C(=O)CSc2nc3ncnc(N)c3[nH]2)CC1 | i | -12%
Cc1ccc(S(=O)(=O)N2CCCC(C(=O)NCCc3ccccc3)C2)cc1 (stereo not given) | -5% | -3%
Cc1ccc2c(c1)N(C(=O)CCC(=O)NCc1cccc(F)c1)CCO2 | -16% | -12%
CCc1ccc(NC(=O)Cn2c(=O)n(CCCCC(=O)NCCc3ccc(Cl)cc3)c(=O)c3ccccc32)cc1 | ? | -22%
Cc1cc(C(=O)O)ccc1-n1c(C)cc(/C=C(/C#N)C(=O)Nc2ccccc2)c1C | -13% | -8%
COC(=O)Nc1ccc(Cn2cc(C(F)(F)F)ccc2=O)cc1 | -13% | -8%
COC(=O)c1ccc(C23CC4(C2)[C@H](CN(Cc2cccnc2)[C@@H]4c2ccccc2)C3c2ccc(C(F)(F)F)cc2)cc1 (stereo not given in full) | -18% | -24%
COc1ccc(OCc2cc(C(=O)N3C[C@@H](C)O[C@@H](C)C3)no2)c(Cl)c1 | -13% | -5%
CCS(=O)(=O)N1Cc2cc(C(=O)N(C)C)nc(-c3cccc(-c4ccc(F)cc4)c3)c2[C@@H]1CCO | 9% | 0%
COc1cccc(C(=O)N2CCC[C@H]2C(=O)N2CCC[C@H]2C(=O)N(C)Cc2ccccc2)c1 | i | -21%
Cc1nc2sccn2c(=O)c1S(=O)(=O)Nc1cccc(Cl)c1C | -11%&-4% | -27%&-20%
CCCCN1C(=O)CC(C(=O)OCC)=C1C | -7% | -15%
COc1ccccc1OCC(=O)Nc1nc(-c2ccc(S(=O)(=O)N3CCOCC3)cc2)cs1 | nt | ?
O=C1NCN(c2ccccc2)C12CCN(C(c1ccnc3ccccc13)c1nnnn1C1CCCC1)CC2 (stereo not given) | 29% | 9%
CCOCCCNC(=O)c1ccc(CS(=O)(=O)c2cccc(C(F)(F)F)c2)o1 | -5% | -10%
CCOc1ccc(CCNC(=O)COC(=O)/C=C/c2ccc(C)o2)cc1OCC | -22% | -19%
COc1ccc(CNc2ccc3cc(S(=O)(=O)N4CCCCC4)ccc3n2)cc1 | -17% | -11%
COc1ccccc1C(=O)NCc1n[nH]c(=S)n1Cc1ccccc1 | i | -5%
COC(=O)COc1cc(Br)c(/C=C2/SC(=O)N(CC(=O)N3CCCC3)C2=O)cc1OC | -5% | -3%
CCOC(=O)c1sc2nc3n(c(=O)c2c1C)CCC3 | i | -21%
CCNC(=O)C1(C)CCCN1C(=O)c1ccc(-c2ccccc2)cc1 (stereo not given) | -15% | -8%
CC1CCN(CCCn2c(SCC(=O)Nc3ccccc3Cl)nc3ccccc3c2=O)CC1 | -11% | -17%

(more compounds)
SMILES | Vaccinia mCherry | VACV Venus inh
Cc1ccc(-n2c(=O)c3c4c(sc3n(CC(=O)C(C)(C)C)c2=O)CCCCC4)cc1C | -4% | -5%
Cc1cc(=O)[nH]c(-n2nc(C)c(Oc3ccccc3O)c2C)n1 | nt | -19%
COc1cccc(-c2nc(CS(=O)(=O)CC(=O)N3CCN(c4ccccc4)CC3)c(C)o2)c1 | -23% | -16%
COc1ccc(OC)c(C(=O)NC(CC(N)=O)c2ccc(N3CCC(N4CCCCC4)CC3)c([N+](=O)[O-])c2)c1 (stereo not given) | -13% | -12%
C[C@@H]1CN([C@@H](C)CO)C(=O)c2cc(C#CCN(C)C)cnc2O[C@H]1CN(C)Cc1ccc2c(c1)OCO2 | -8% | -10%
Cc1cc(S(=O)(=O)NCCCN2CCOCC2)c(Cl)cc1Cl | -20% | -1%
CN(Cc1cnccn1)Cc1nc(Cc2ccccc2F)no1 | -5% | -19%
CC(C)CNC(=O)c1cccc2c(-c3ccc(F)c(F)c3)coc12 | 44%[activator] | -7%
COc1ccc(CNC(=O)C2CCN(c3nnc(N4CCCC4=O)s3)CC2)cc1 | -9% | 1%
COc1ccc(N(CC(=O)NCCSc2ccccn2)S(=O)(=O)c2ccccc2)cc1OC | 4% | 2%
Cc1ccc(N(CC(=O)NC2CCCC2)C(=O)CCC(=O)Nc2ccccn2)cc1 | i | 2%
O=C1OC[C@H]2CCCN2C(=O)[C@@H](CC(=O)N(CCO)Cc2ccccc2)C/C=C\CC[C@@H]1Cc1ccc(F)cc1 | -23% | ?
COc1ccc(OC)c2[nH]c(=O)c(CCNC(C)=O)cc12 | i | -12%
COc1ccc(C2CC(c3ccc(Cl)cc3)=NN2C(=O)c2cccc([N+](=O)[O-])c2)cc1 (stereo not given) | ? | -20%
O=c1nc(-c2ccccc2)c2cc(SC(F)F)ccc2[nH]1 | -2% | -21%
CCCC1C(C#N)=C(N)Oc2n[nH]c(C(C)(C)C)c21 (stereo not given) | i | -13%
Cc1ccc(-n2cnc3cc(C(=O)NCCC4=CCCCC4)ccc32)cc1Cl | -26% | -19%
NC(=O)C1CCCN(C(=O)c2cccc(NC(=O)c3cccs3)c2)C1 (stereo not given) | -5% | 1%
CCC(=O)N1CCc2cc(Br)cc(S(=O)(=O)NCc3ccco3)c21 | -21% | -11%
CCCCCCSc1cc(-c2nc3ccc(Cl)cn3c2NCCCC)ccc1OC | -8%&-10% | 0%&-3%
COC(=O)[C@]12CCCCC=C1N(Cc1ccco1)C(=O)[C@H](CC(=O)NCCCCc1ccccc1)C2 | 8% | -2%
CCOc1ccccc1NS(=O)(=O)c1ccc2oc(=O)c3ncn(C)c3c2c1 | -6% | -2%
CCCn1ccc2c(OCC(=O)Nc3ccc(NC(C)=O)cc3)cccc2c1=O | -14% | -15%
N#Cc1ccc(N)cc1OCCCN1CCCCC1 | -5% | -7%
COc1cc(O)c2c(=O)c3c(O)ccc(O)c3oc2c1 | -18% | -10%
CC(C)c1nc2sc3c(=S)nc[nH]c3c2c2c1CCC2 | -19% | -3%
O=C(Nc1c2c(nn1-c1ccc(Cl)cc1)CS(=O)(=O)C2)c1ccccc1 | -12% | -5%

High-throughput results as filed in PubChem BioAssay.
